Screening results: PubChem BioAssay, several laboratories
FGF22 binding: shifts melting point of recombinant human FGF22 | Q9HCT0 | recombinant FGF22 thermal shift, SYPRO orange fluorescence; percent of sucrose octasulfate shift, DMSO zero | calls only at 9.99 µM | actives 1.5% (n = 340,000);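 active = melting point raised past a set limit in the mean and every replicate; three in four hits are not shown here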
Target sequence (Q9HCT0 whole entry, looked up): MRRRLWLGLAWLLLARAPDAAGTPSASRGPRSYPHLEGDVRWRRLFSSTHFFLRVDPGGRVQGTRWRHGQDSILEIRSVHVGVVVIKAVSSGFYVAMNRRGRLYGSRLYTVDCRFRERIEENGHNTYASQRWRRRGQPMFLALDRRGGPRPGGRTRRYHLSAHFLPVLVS
Beta2AR agonist: human beta-2 adrenergic receptor agonism by FAP; Am2.2-beta2AR cells, FAP receptor internalization, flow cytometry; reference of the scale not given here; actives 0.43% (n = 340,000); AID 504454; response, % (no concentration beside the values); P07550;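 active = response above a set limit, near 3 SD of response in nonfluorescent compounds, cut at about 42% in these data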;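 note: stock transfer was 100 nL into about 11 µL; a reference agonist was the positive control; negative values mostly stem from fluorescent compounds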
Target sequence (P07550 whole entry, looked up): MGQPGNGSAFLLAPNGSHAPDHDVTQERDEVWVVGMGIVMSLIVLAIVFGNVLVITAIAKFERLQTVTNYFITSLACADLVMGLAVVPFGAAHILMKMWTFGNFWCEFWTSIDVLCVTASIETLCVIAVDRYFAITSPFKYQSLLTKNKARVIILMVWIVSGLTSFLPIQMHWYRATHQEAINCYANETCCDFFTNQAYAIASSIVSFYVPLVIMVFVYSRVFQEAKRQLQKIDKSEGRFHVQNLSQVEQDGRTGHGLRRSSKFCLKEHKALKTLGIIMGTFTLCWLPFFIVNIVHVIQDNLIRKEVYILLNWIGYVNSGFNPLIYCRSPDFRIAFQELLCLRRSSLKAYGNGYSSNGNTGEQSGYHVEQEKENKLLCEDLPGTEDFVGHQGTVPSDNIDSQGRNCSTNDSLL
ALR H2O2 inh: human ALR oxidase inhibition via reduced H2O2 | P55789 | purified ALR, DTT oxidation, H2O2 HRP-luminol luminescence | inhibition, % (test concentration not listed) | actives 3.8% (n = 290,000) | AID 485317;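 active = mean and each replicate at 75% or more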;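 note: stock transfer was 7.5 nL into about 7.5 µL; 0% = neutral wells and 100% = wells with inactivated enzyme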
Target sequence (P55789 whole entry, looked up): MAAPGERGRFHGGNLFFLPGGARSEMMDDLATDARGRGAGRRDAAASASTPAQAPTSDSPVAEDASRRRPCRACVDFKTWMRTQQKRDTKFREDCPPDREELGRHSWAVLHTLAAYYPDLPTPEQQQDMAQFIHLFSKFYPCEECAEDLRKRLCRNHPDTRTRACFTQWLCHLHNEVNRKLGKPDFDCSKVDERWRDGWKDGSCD
HNF4A DNA FP: change in binding of human HNF4 alpha to DNA; HNF4a-FITC DNA binding, fluorescence polarization, 1 h; activity change, % at 10 µM; actives 0.3% (n = 360,000); in the data active = activity change above about 30%, passing the limit was not always enough;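 note: controls were the assay level and a saturating level of protein; the project sought stronger binding though the title names inhibitors; some compounds called inactive have numbers as strong as hits; positive values seem to mean higher polarization but the record does not say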
E coli growth: blocks Escherichia coli growth | OD600, 23 h; hits give low values | actives 0.21% (n = 330,000) | OD600 absorbance (test concentration not listed);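 active = OD600 absorbance below the run mean of sample wells minus 3.6 SD, in any replicate, cut at about 0.56 in these data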;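 note: stock transfer was 300 nL into about 60 µL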
LANA-H2A inh: blocks KSHV LANA binding to histone H2A/H2B. cell-free LANA-H2A/H2B peptide, fluorescence polarization. Q9QR71. inhibition, % (test concentration not listed). AID 2629. actives 0.6% (n = 320,000); in the data active = inhibition mostly above about 10%, no sharp cut-off; inactive = mostly below about 6.7%;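 note: stock transfer was 7.5 nL into about 10 µL; 0% = median of vehicle wells and 100% = median of positive control wells; one replicate is shown; the record names a cut of 25% in any replicate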
UCH37 DUB inh: inhibitors of human deubiquitinating enzyme UCH37; purified proteasome/UCH37, Ub-AMC cleavage fluorescence; Q9Y5K5; actives 0.33% (n = 330,000); AID 588478; inhibition, % (test concentration not listed);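 active = mean of two replicates above 20%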;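 note: 0% = compound-free wells with enzyme and 100% = wells lacking proteasome; stock transfer was 100 nL into about 20 µL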
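Signal – fluorescence, ex 355 nm, em 460 nm · System – Proteasome-bound UCH37 · Input – 0.15 nM proteasome as dispensed · Timing – 30 min preincubation with enzyme, 25 min cleavage at room temperature · Read-out basis – percent inhibition of cleavage signal versus uninhibited and no-proteasome wells · Medium – Tris-HCl pH 7.4 with ATP-MgCl2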
* hit, by the source's call; i = inactive; · = no result given. An excerpt. The share of hits here may be higher or lower than overall.

Sequence of screens – FGF22 binding	Beta2AR agonist	ALR H2O2 inh	HNF4A DNA FP	E coli growth	LANA-H2A inh	UCH37 DUB inh
> Cc1ccc(C)c(S(=O)(=O)N2CCCCC2CCNC(=O)C(=O)NCCc2ccco2)c1 (stereo unspecified)
  i	-6.7	-16.6	0.9	·	-6.4	·
> Cc1nc2sc(C)c(C)c2c(=O)[nH]1
  ·	5.9	-0.9	2.3	0.744	8.1	1.6
> Nc1nc(NCCO)nc(NC2CCCCC2)c1[N+](=O)[O-]
  i	5.0	-2.0	-0.8	0.68	1.6	12.3
> Cc1ccc(N2C(=O)CSCC2=O)cc1
  ·	-3.2	3.4	1.3	0.758	1.0	-6.0
> Cc1cccc(Nc2ccccc2)c1
  ·	0.2	44.0	-1.2	0.759	4.5	3.4
> CC(=O)Nc1cccc(NC(=O)Nc2ccc(C)c(Cl)c2)c1
  ·	11.4	·	-0.9	0.721	-0.6	2.7
> CC[C@@H](C)[C@@H]1CN([C@@H](CN2CCC[C@H]2CN2C(N)=NC[C@H]2C(C)C)C(C)C)C(=N)N1CCc1ccc(Cl)c(Cl)c1
  ·	0.6	·	0.9	0.575	·	3.8
> NC(=O)C1CCCN(C(=O)c2ccc3oc(Cc4ccc(Cl)cc4)nc3c2)C1 (stereo unspecified)
  i	15.1	-0.4	-1.4	0.693	5.0	0.4
> CCc1nc2ccccc2c(C(=O)OCC(=O)Nc2cccc(S(=O)(=O)N3CCOCC3)c2)c1C
  ·	22.8	-2.8	2.5	0.738	-0.1	1.8
> CC(=O)c1cnc2c(-c3ccccc3)c(-c3ccccc3)nn2c1C
  i	3.1	·	2.4	0.629	0.6	-51.2

Rewritten in markdown: two of the compounds above
| mol | FGF22 binding | Beta2AR agonist | ALR H2O2 inh | HNF4A DNA FP | E coli growth | LANA-H2A inh | UCH37 DUB inh |
| --- | --- | --- | --- | --- | --- | --- | --- |
| Cc1ccc(N2C(=O)CSCC2=O)cc1 | · | -3.2 | 3.4 | 1.3 | 0.758 | 1.0 | -6.0 |
| Cc1ccc(C)c(S(=O)(=O)N2CCCCC2CCNC(=O)C(=O)NCCc2ccco2)c1 (stereo unspecified) | i | -6.7 | -16.6 | 0.9 | · | -6.4 | · |

Additional results.
Sequence of screens – FGF22 binding	Beta2AR agonist	ALR H2O2 inh	HNF4A DNA FP	E coli growth	LANA-H2A inh	UCH37 DUB inh
> Nn1cc(-c2ccccc2)nc1SCC(=O)NC1CCS(=O)(=O)C1 (stereo unspecified)
  ·	-0.3	·	1.8	0.72	3.7	1.1
> CC(=O)Nc1cn(-c2ccccc2)nc1-c1ccccc1
  i	-13.1	-5.1	-1.3	0.704	-4.3	1.3
> CC(C)NC(=S)N/N=C/c1cc(Br)ccc1O
  ·	1.0	27.6	1.3	·	0.7	·
> CC1CCCCC1NC(=O)COC(=O)c1ccccn1 (stereo unspecified)
  ·	-7.8	-17.2	-0.4	0.685	-4.7	1.1
> COC(=O)Cn1c(C)c(C#N)c2ccccc21
  ·	7.7	-5.4	-1.1	0.734	-8.0	-2.3
> COc1ccccc1-c1nnc2n1N=C(C(C)(C)C)CS2
  ·	-7.5	-0.4	-0.7	0.739	5.4	5.3
> COC(=O)c1cc(NS(=O)(=O)c2cccs2)cc(NS(=O)(=O)c2cccs2)c1
  i	2.3	·	-2.9	0.703	·	0.9
> CCOC(=O)N1CCN(S(=O)(=O)c2ccc(C(=O)N(CCCN(C)C)c3nc4ccc(Cl)cc4s3)cc2)CC1
  i	31.7	-2.7	3.5	0.686	2.5	3.1
> Cc1nn(C)cc1S(=O)(=O)N1CCN(c2ccccc2F)CC1
  i	-9.8	1.9	-0.3	0.711	-1.1	4.7
> CC1SC(c2ccc(F)cc2)NC1=O (stereo unspecified)
  i	4.8	·	1.1	0.685	0.4	2.3

Going on with the list:
Sequence of screens – FGF22 binding	Beta2AR agonist	ALR H2O2 inh	HNF4A DNA FP	E coli growth	LANA-H2A inh	UCH37 DUB inh
> COc1ccc(C2C(C(=O)OCC(=O)Nc3ccc(C)cc3)CCC(=O)N2c2ccc(OC)cc2)cc1 (stereo unspecified)
  ·	10.6	·	0.5	0.773	·	0.8
> CCN1CCN(c2ccc(NC(=O)c3cccc4ncccc34)cc2)CC1
  ·	0.0	-1.0	0.1	0.702	2.3	0.7
> Cc1cc[n+](-c2[nH]c(=O)sc2/C=N/N=C(\[O-])c2ccccc2)cc1C
  i	-3.6	·	-104.2	·	·	·
> Cc1ccnc(NS(=O)(=O)c2ccc(NC(=O)c3ccc(S(=O)(=O)N4CCOCC4)cc3)cc2)n1
  i	0.4	4.1	1.0	0.727	-3.9	-0.6
> CS(=O)(=O)N(CC(=O)NCc1ccc2c(c1)OCO2)c1ccc(Cl)cc1
  ·	8.0	0.2	-0.2	0.72	3.3	3.6
> Cc1cc(C)nc(SCc2ccc(C(=O)N/N=C/c3ccncc3)cc2)n1
  i	-19.2	-41.9	0.6	·	-1.5	·
> CC(CC(=O)N1CCc2ccccc21)c1ccccc1 (stereo unspecified)
  ·	3.7	-16.7	-5.3	0.76	7.5	7.1
> CCc1ccccc1NC(=S)N(CCCN1CCOCC1)Cc1cccs1
  ·	-7.2	2.3	-1.3	0.658	-3.6	0.6
> Cc1nn(Cc2n[nH]c(=S)n2Cc2ccccc2)c(C)c1Cl
  ·	5.4	·	3.9	0.71	-2.3	0.7
> CCCSc1nsc(N)n1
  i	4.1	4.0	-2.5	0.654	-2.7	3.6

Further compounds follow.
Sequence of screens – FGF22 binding	Beta2AR agonist	ALR H2O2 inh	HNF4A DNA FP	E coli growth	LANA-H2A inh	UCH37 DUB inh
> CS(=O)(=O)N(CC(=O)NCCC1=CCCCC1)C1CCCCC1
  ·	1.2	2.6	-0.1	0.68	1.2	-1.4
> Cc1ccc(OC(=O)Nc2ccccc2)cc1
  i	-0.1	0.7	1.6	0.695	1.0	-1.7
> O=C(COc1ccc2c3c(c(=O)oc2c1)CCC3)N1CCN(c2ccc(F)cc2)CC1
  i	-13.4	-10.9	-3.5	0.637	-3.0	-0.8
> C=CCNc1nc(Nc2ccc(OC)cc2)nc(OCC)n1
  ·	-3.2	0.3	-4.4	0.68	1.6	0.4
> COc1cc(/C=N/NC(=O)CCN2CCN(C)CC2)cc2c1OCO2
  i	-2.9	-2.6	-0.8	·	-5.6	·
> CC(=O)Nc1ccc(OCC(=O)N(CC(C)C)C2CCS(=O)(=O)C2)cc1 (stereo unspecified)
  i	-4.2	-21.1	8.2	0.669	-6.9	1.2
> COc1ccc(Cl)cc1NC(=O)CN1CCCCCC1
  i	-1.4	-9.5	-0.3	0.698	1.0	-1.3
> O=C(C=Cc1ccccc1)c1cc(Br)ccc1O
  i	7.3	·	2.5	0.642	·	2.2
> COc1cc(/C=C2\SC(=O)N(CCN)C2=O)ccc1OS(=O)(=O)c1cc(C)ccc1C
  i	23.3	·	1.6	0.611	·	6.6
> CCNS(=O)(=O)c1ccc(CCC(=O)N2CCN(Cc3ccccc3)CC2)cc1
  i	1.6	-0.8	-1.0	0.633	-1.3	2.6

Remaining list, next part:
Sequence of screens – FGF22 binding	Beta2AR agonist	ALR H2O2 inh	HNF4A DNA FP	E coli growth	LANA-H2A inh	UCH37 DUB inh
> Cc1ccc(NC(=O)CN2C(=O)COc3ccc(S(=O)(=O)N4CCCC4)cc32)cc1C
  i	-2.7	-3.5	-1.2	0.618	1.3	2.1
> COCCn1cnc2c1c(=O)n(CC(=O)Nc1cc(C)on1)c(=O)n2Cc1ccccc1
  ·	6.1	2.0	0.9	0.794	4.6	1.8
> COc1ccccc1N(Cc1ccccc1)S(=O)(=O)c1cccc(C(=O)Nc2cc(C)ccn2)c1
  i	2.3	-3.0	0.8	0.749	-0.4	2.0
> NC(=O)CCC(NS(=O)(=O)c1ccc(Cl)cc1)C(=O)NCc1ccccc1Cl (stereo unspecified)
  ·	3.4	-0.2	-0.8	0.7	1.0	1.2
> CCOc1ccc(C(=O)COC(=O)Cn2cnc3c2c(=O)n(C)c(=O)n3C)cc1
  i	0.6	-1.8	1.3	0.693	·	0.3
> COc1ccc(C(=O)OCC(=O)Nc2ccc3c(c2)OCCO3)c(OC)c1
  i	8.1	-0.1	-2.7	0.639	3.2	3.9
> CCC(=O)n1nc(-c2ccccc2)nc1SCC(=O)Nc1ccc(C)cc1
  ·	-3.9	-3.4	-2.2	0.654	0.0	0.2
> COCCNC(=O)c1onc(CSc2ccccc2)c1C(=O)NCCOC
  i	0.8	-2.5	-1.9	0.679	1.5	-0.9
> Cc1ccccc1NC(=O)COc1cccc2c1CCNC2=O
  i	10.5	·	3.3	0.682	-3.7	-1.2
> CCOC(=O)c1c(C)c(C(=O)NCc2cccnc2)c(C)n1C
  ·	-5.8	0.5	-0.2	0.671	-2.4	0.5

(further entries)
Sequence of screens – FGF22 binding	Beta2AR agonist	ALR H2O2 inh	HNF4A DNA FP	E coli growth	LANA-H2A inh	UCH37 DUB inh
> COC(=O)c1ccc(C2CC(=O)Nc3cc(OC)c(OC)cc32)cc1 (stereo unspecified)
  ·	-11.7	0.8	2.7	0.72	-0.5	4.9
> CSC(=Nc1ccccc1)C1=C(O)COC1=O
  ·	3.2	96.9*	0.0	0.698	-3.2	1.7
> COc1ccc(C)cc1NC(=O)CN(c1ccc(F)cc1)S(C)(=O)=O
  ·	7.8	-4.3	1.1	0.709	-2.9	4.2
> Cc1cc(C)c(NC(=O)COC(=O)c2cc([N+](=O)[O-])ccc2N2CCOCC2)c(C)c1
  i	-9.1	-1.0	-0.9	0.688	-3.0	3.1
> Cc1cc(-c2ccc(S(=O)(=O)N3CCN(C)CC3)s2)on1
  i	-7.1	1.6	-3.8	0.691	3.6	6.1
> Cc1ccc(C(=O)NCCNc2ccc(Cl)cc2[N+](=O)[O-])o1
  ·	-17.6	·	5.0	0.713	-0.6	6.8
> COC(=O)c1ccc(C(=O)OC)c(NC(=S)N2CCC(N3CCCCC3)CC2)c1
  i	2.4	-0.8	-0.3	0.654	0.9	-6.5
> CN(C)c1ccc(NC(=O)CN2C(=O)CC(c3ccccc3)=Nc3ccccc32)cc1
  ·	-4.2	36.7	-0.9	0.771	1.6	4.0
> COC(=O)C1=C(C)N(Cc2ccco2)C(=O)N[C@@H]1c1ccc(Br)cc1
  i	-3.3	-4.1	-0.1	·	1.2	1.2
> Cc1ccc(C(=O)NCC(=O)OCC(=O)Nc2ncc(C(F)(F)F)cc2Cl)cc1
  i	10.2	-6.0	-5.1	0.707	-0.9	-2.3

Going on with the list:
Sequence of screens – FGF22 binding	Beta2AR agonist	ALR H2O2 inh	HNF4A DNA FP	E coli growth	LANA-H2A inh	UCH37 DUB inh
> COc1ccc(S(=O)(=O)N2CCN(c3nc(C)cc(C)n3)CC2)cc1
  i	-10.2	-11.9	-3.0	0.7	-6.2	1.3
> CN(CCCC1CCCC1)C(=O)c1cc(COc2ccc(F)cc2F)on1
  i	-7.0	0.5	2.1	0.681	0.2	-3.2
> Nc1cc(N)cc(-c2nc3ccccc3[nH]2)c1
  ·	14.6	20.0	1.2	0.7	-6.6	-8.6
> CCCCn1c(SCc2ccc(Cl)cc2)nc2c1c(=O)[nH]c(=O)n2C
  ·	-7.9	-4.1	-0.2	0.773	-3.2	1.2
> CCOc1nc(NCCN2CCOCC2)nc(Nc2ccc(C)cc2)n1
  ·	-1.3	-12.1	-0.6	0.712	-3.2	1.0
> CCOC(=O)c1ccc(NC(=S)N2CCN(C)CC2)cc1
  i	-6.3	3.0	0.6	0.666	1.8	2.5
> CCOC(=O)N1CCN(C(=O)/C(=C/c2ccc(OC)cc2)NC(=O)c2ccccc2)CC1
  ·	-2.3	1.4	3.0	0.651	-1.4	2.2
> O=C(Nc1ccc(Cl)cc1)N1N=CCC1c1ccccc1 (stereo unspecified)
  i	-6.9	-4.2	-0.9	0.647	-1.2	1.5
